Compound activity deposited in PubChem by ICCB-Longwood Screening Facility, Harvard Medical School.
RVFV N-RNA FP: RVFV nucleocapsid-RNA interaction inhibition; RVFV N-RNA binding, fluorescence polarization; active compounds read low; % bound, % (concentration not given with the values); 20,000 compounds, 0.1% hits; AID 651828;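 active = between 0 and 58% in either replicate with normal brightness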;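 note: 100 nL library stock added to about 12 µL; 100% = protein and probe without compound and 0% = probe alone; numbers are from one replicate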
Target sequence (P21700 whole entry, looked up): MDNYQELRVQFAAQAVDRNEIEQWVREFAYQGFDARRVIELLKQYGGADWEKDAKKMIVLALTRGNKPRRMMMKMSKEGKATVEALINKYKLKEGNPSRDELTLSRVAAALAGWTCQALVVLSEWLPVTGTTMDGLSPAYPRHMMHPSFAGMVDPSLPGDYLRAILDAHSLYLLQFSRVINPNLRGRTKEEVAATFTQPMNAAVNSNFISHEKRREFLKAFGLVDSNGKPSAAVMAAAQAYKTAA
Active calls of the source: *; & = joins results of further samples. A portion of the library. The share of hits here may be higher or lower than overall.

Molecule,RVFV N-RNA FP
O=C(c1ccco1)N1C(=O)c2cccc3cccc1c23,82.3
N#Cc1cc2c(nc1SCc1ccccc1)CCCC2=O,91.8
COc1ccc2c(c1)c(C1=C(c3c[nH]c4ccccc34)C(=O)NC1=O)cn2CCCN(C)C,107.6
C[N+](C)(C)CC=O,93.9
Brc1ccc(N=Cc2ccc[nH]2)cc1,99.2
COc1ccc(Cl)cc1NC(=O)c1nnn(CC(=O)Nc2c(C)cc(C)cc2C)c1N,90.9
CC1CC(=O)N(CC(=O)Nc2ccccc2)c2ccccc2S1(=O)=O (configuration not stated),93.5
COc1ccc(O)c(CN2CCCCC2)c1,106.1
C=CCN1C(=O)C2C(C1=O)C1C=CC2C12CC2 (configuration not stated),97.9
CCOC(=O)c1ccc(NC(=O)/C(=C\c2ccco2)NC(=O)c2ccccc2Br)cc1,104.2
CC(C)C(=O)Nn1cnc2c(cnn2-c2ccccc2)c1=O,93.7
CSc1ccc(S(=O)(=O)NC2CCCCC2)cc1,98.3
COc1cccc(Oc2coc3cc(OCC(N)=O)ccc3c2=O)c1,100.2
CC(C)CC(F)Cc1cnc(=O)[nH]c1 (configuration not stated),95.6
CN(C)S(=O)(=O)c1ccc2c(c1)/C(=C\CCN1CCNCC1)c1ccccc1S2,93.6
NCCCN(Cc1ccco1)C1CCCC1,98.3
Cc1ccc(S(=O)(=O)CC(=O)N(C)C)cc1,98.3
Cc1nn(C)cc1CNC(=O)c1ccccc1Br,96.0
O=S(=O)(Cc1ccccc1)N/N=C/c1ccc2c(c1)OCO2,91.1
NC(=O)CSc1nnc(-c2ccco2)n1N,96.0
O=C(Nc1ccc(I)cn1)c1ccc(-c2ccc(Cl)cc2)o1,97.0
O=C1CN(c2ccccc2)C(=O)C1C(=O)N1CCOCC1 (configuration not stated),97.2
CC(C)C[C@H](NC(=O)C1OC1C(=O)O)C(=O)NCCCCN=C(N)N (some centres not stated),103.1
Cn1c2c(c(=O)n(C)c1=O)C(O)(C(F)(F)F)C(=O)N2 (configuration not stated),98.1
CN(C)c1ccc(-c2nc3ccccc3o2)cc1,99.6
CCCC(C)C(=O)Nc1ccc(F)cc1 (configuration not stated),95.2
CN(c1ccccc1)S(=O)(=O)c1ccc2c(c1)CCN2S(C)(=O)=O,89.0
O=C1N/C(=C\c2ccc(O)cc2)C(=O)c2ccccc21,97.2
CC1=CC(=C2C(=O)c3ccccc3C2=O)C=C(C)O1,92.1
Cc1ccc(S(=O)(=O)N(C/C=C/c2ccccc2)C(=O)N2CCN(C)CC2)cc1,107.5
O=C(Nc1ccc(F)cc1)Oc1ccccc1N1CCOCC1,96.9
CC1CCCN(C(=O)C2CC(=O)N(C3CCCCC3)C2)C1 (configuration not stated),96.6
O=C(CCN1C(=O)c2ccccc2S1(=O)=O)Nc1ccccc1,78.4
Cc1cc(NS(=O)(=O)c2ccc(N)cc2)no1,95.1
Cc1cccc(C)c1Nc1nc2ccccc2o1,94.3
CC1CC(Nc2ccccc2)c2ccccc2N1 (configuration not stated),102.0
COC(=O)c1cccc(NC(=O)NC(C)(C)C)c1,99.1
Cc1nn(-c2ccccc2)c(C)c1C(N)=O,95.8
O=S(=O)(NCCSCc1c(F)cccc1Cl)c1cccc2nonc12,96.7
O=C1CCCN2N=C(SCC(=O)Nc3ccccc3C(F)(F)F)SC2=N1,94.1

Three entries from above, as labelled records.
COC(=O)c1cccc(NC(=O)NC(C)(C)C)c1
  RVFV N-RNA FP: 99.1
Cc1nn(-c2ccccc2)c(C)c1C(N)=O
  RVFV N-RNA FP: 95.8
O=S(=O)(NCCSCc1c(F)cccc1Cl)c1cccc2nonc12
  RVFV N-RNA FP: 96.7

(list continues)
Molecule,RVFV N-RNA FP
COc1ccc(-c2cc(C3CC3)nc(SCC(N)=O)c2C#N)cc1,90.3
CCCCc1nnc(SCC(=O)Nc2nccs2)n1CC,95.8
Cc1oc2cc(OC(C)C)ccc2c(=O)c1-c1ccccc1,92.2
Cc1cccc2sc(N)nc12,101.1
CCCCNc1ncc2c(n1)CC(c1ccccc1)CC2=O (configuration not stated),97.5
Cn1c(SCc2cccnc2)ncc(C(=O)Nc2ccc(F)cc2)c1=O,96.0
CCCn1cnc2c(cnn2-c2ccc(Cl)cc2)c1=O,106.9
CC(C)C1C(C#N)=C(N)OC2=C1C(=O)CCC2 (configuration not stated),101.9
CCN(CC)c1ccc(NC(=O)CSc2nc(C)cc(=O)[nH]2)cc1,91.7
CC(CCc1ccc(O)cc1)NCC(O)c1ccc(O)cc1 (configuration not stated),97.7&99.7
Cc1ccc(-c2csc(=NC(C)(C)C)n2-c2c(C)n(C)n(-c3ccccc3)c2=O)cc1,95.8
CS(=O)(=O)c1sc(C#N)c2c1C(=O)CCC2,95.5
Cn1ccc2c(OCC(N)=O)cccc2c1=O,93.3
C=CCNc1ncnc2c1cnn2-c1cccc(Cl)c1,95.7
C=CCNC(=O)Nc1ccc(OCC)cc1,95.8
c1cnc2c(c1)ccc1cccnc12,96.1
c1ccc(CN2CCC3(CCCc4ccccc43)CC2)cc1,96.6
CCN(CC(=O)O)S(=O)(=O)c1ccccc1,96.0
N[C@@H](Cc1ccc(N(CCCl)CCCl)cc1)C(=O)O,99.1
CCOc1ccc2cc(C3CC(c4ccco4)=NN3S(C)(=O)=O)c(=O)[nH]c2c1 (configuration not stated),96.3
COC(=O)c1cc(S(=O)(=O)NC2CCCCNC2=O)oc1C (configuration not stated),99.8
CCOc1ccc(NC(=O)N(CC(C)C)CC(C)C)cc1,89.3
O=C(O)CSC(=S)N1CC2CC(C1)c1cccc(=O)n1C2 (configuration not stated),85.9
N#Cc1ccc(OC(=O)N2CCOCC2)cc1,98.7
CN1C(=O)/C(=C2\SC(=S)N(C)C2=O)SC1=S,96.5
COC(=O)c1ccc(NC(=O)CSc2nnc(Cn3c(=O)sc4ccccc43)n2C)cc1,93.7
CC1(C)CC(=O)C(C2C3=C(CC(C)(C)CC3=O)Oc3ccccc32)=C(O)C1 (configuration not stated),92.7
CC(C)(C(N)=O)/[N+]([O-])=C\c1ccccc1,94.3
CN(C)c1cc(NC(=O)Nc2ccccc2)c2ccccc2n1,87.5
Cc1cc(=O)c2cc(Cl)ccc2s1,92.7
COc1ccc(OC)c(S(N)(=O)=O)c1,99.1
COC(=O)c1ccccc1NC(=O)/C=C/c1ccc(C)o1,104.0
CC(C)(C)NP(C)(=O)C(C)(C)C (configuration not stated),89.9
O=C(NNc1nc2c(F)cccc2s1)c1nc2ccccc2s1,96.1
CC1CC(=O)c2cnc(N3CCOCC3)nc2C1 (configuration not stated),91.9
O=c1[nH][nH]c(=O)n1/N=C/C=C\c1ccccc1,101.3
NCC(O)c1ccc(O)cc1 (configuration not stated),91.7
Cn1cc(S(=O)(=O)NCCc2ccccc2)c(=O)n(C)c1=O,101.1
O=C(/C=C/c1ccco1)Nc1ccc(S(=O)(=O)N2CCCCC2)cc1,94.9
Cc1ccc(C)c(-c2nnc(NC(=O)c3ccc(S(=O)(=O)N4CCc5ccccc54)cc3)o2)c1,98.7
Cc1ccc(C)n1-c1oc(-c2ccco2)c(-c2ccco2)c1C#N,94.5
COc1ccc(C2=NN(C(=O)c3ccc(C)cc3)CC2)cc1,110.6
CCC(=O)Nc1ncc2c(n1)CC(c1ccc(N(C)C)cc1)CC2=O (configuration not stated),98.7
CCSc1nnc(-c2ccc(Cl)cc2)o1,94.2
Cn1ncc2c(O/N=C/c3ccc(Cl)cc3Cl)ncnc21,88.8
CC1=C(C(=O)OC2CCCC2)C(c2ccccc2)NC(=O)N1 (configuration not stated),105.1
S=C(NCc1ccccc1)N/N=C/c1ccco1,108.0
Cc1cc(=S)n(-c2ccccc2)n1C,100.4
Nc1ncc(-c2nnnn2-c2ccccc2)c(-c2ccccc2)n1,88.0
Cc1ccc2c(c1)c1c3n2CCN(C(=O)c2c(-c4ccccc4Cl)noc2C)C3CCC1 (configuration not stated),104.0
CCCCSc1nnc(CNC(=O)c2ccc(OC)cc2)n1CCCC,99.4
FC(F)(F)c1ccnc(NCCNC(=S)Nc2ccc3c(c2)OCCO3)n1,96.4
O=C(NN1C(=O)CCC1=O)c1cccc(Br)c1,98.1
Cc1ccc(-c2nn3c(C)nnc3c3ccccc23)cc1S(=O)(=O)NCc1ccco1,89.6
CC1(C)CC2CC(C)(CN2c2ncnc3ccccc23)C1 (configuration not stated),85.5
CSc1nccc(-c2cccs2)n1,95.0

More compounds.
Molecule,RVFV N-RNA FP
O=c1c2ccccc2c(-c2ccc(Cl)cc2)nn1CN1CCOCC1,87.9
Cc1ccc(C)c(N/C=C/C(=O)C(C)(C)C)c1,90.5
CC(=O)N1CCN=C1SCc1ccc(C)cc1,100.2
O=C1CC2(CCN(C(=O)C3CCCC3)CC2)Oc2ccccc21,96.7
n1onc2c1NC1Nc3nonc3NC1N2 (configuration not stated),90.2
O=C(O)C1CC=CCC1C(=O)NCc1ccccc1 (configuration not stated),98.2
Cc1c(C)c2ccc(O)c(CN(C)C)c2oc1=O,89.1
COc1nc(NCc2ccccc2)nc(NC2CCCCC2)n1,96.6
O=S(=O)(Nc1ccc(N2CCOCC2)cc1)c1ccccc1,99.5
COC(=O)c1cnc(NNC(=O)Cc2ccccc2)nc1C(F)(F)F,97.0
CC(NCc1ccccc1)c1cc(Cl)ccc1O (configuration not stated),95.4
CCCN1CCC(NCc2ccc(Br)cc2)CC1,96.8
O=C(Nc1ccc(N2C(=O)CCC2=O)cc1Cl)C1CCCCC1,103.2
CC1=CC2CC1C1C(=O)N(c3ccc(C(F)(F)F)cc3)C(=O)C21 (configuration not stated),103.4
Cc1ccc(-c2cc3c(nn2)-c2ccccc2C3=O)cc1,93.9
Cc1onc(-c2ccccc2)c1CNC(=O)Nc1ccc(C(F)(F)F)cc1,94.8
COc1ccc(C2CC(=O)c3cnc(NCc4ccccc4)nc3C2)cc1 (configuration not stated),92.0
C[N+]1(C)CCOC(O)(c2ccc(-c3ccc(C4(O)C[N+](C)(C)CCO4)cc3)cc2)C1 (configuration not stated),93.3
CC(C)c1ccc(OCc2nnc(SCC(=O)NC3CCCCC3)o2)cc1,91.9
O=C(O)c1ccc(C(=O)O)c(C(=O)O)c1,109.1
O=C(CN1CCc2ccccc2C1)NC1CCCC1,99.4
Nc1ccc(S(=O)(=O)c2ccc(N)cc2)cc1,102.0
N#Cc1ccc(-c2ccccc2)[nH]c1=O,94.0
O=C(NC1CCCCCC1)c1cnc2n(c1=O)CCS2,100.4
CCN(CC)CC(=O)NN1CC(=O)N(c2cccc(Cl)c2)CC1=O,94.4
O=C(Nc1ccccc1)C1CCCN(S(=O)(=O)c2ccccc2)C1 (configuration not stated),98.9
OC/C=C/C=C/c1ccc(F)cc1,98.8
c1ccc(C(NCCNC(c2ccccc2)c2ccccc2)c2ccccc2)cc1,98.7
CCOC(=O)C1CCCN(C/C=C/c2ccccc2)C1 (configuration not stated),95.0
Oc1ccc(Cl)cc1C=Nc1cccc2nsnc12,92.2
Cc1ccccc1Nc1nc(N)nc(-c2cc3ccccc3o2)n1,95.7
CCN(C(=O)CSc1nnc(C)s1)c1ccccc1,93.0
COc1cc2c(cc1OC)C(c1cc(Br)ccc1O)N(C)CC2 (configuration not stated),99.9
C=CCn1c(C(C)Oc2ccc(Cl)cc2)n[nH]c1=S (configuration not stated),87.5
CCCCN(C)C(=O)C1(c2ccc(OC)cc2)CCOCC1,108.5
O=C(N/N=C/c1ccc(OC2CSC2)cc1)c1ccncc1,103.7
CCC(=O)Nc1ccc(NC(=O)c2ccc(OC)cc2OC)cc1,96.6
Cc1ccc(C(=O)N2c3ccccc3CC2C)o1 (configuration not stated),99.7
N#Cc1cnc2ccnn2c1N,87.9
CC(C)C(=O)NNc1ncccc1C(F)(F)F,90.3
O=c1cc(NCc2ccccc2)c2ccccc2o1,100.2
Cc1cc(C)nc(NC(N)=NCc2cccnc2)n1,93.6
O=C(Nc1ccccc1)Nc1ccc(Cl)cc1,98.0
CC1=CC(O)(c2ccccc2)C(N2CCOCC2)N1O (configuration not stated),87.1
CCc1cc(=O)n2[nH]c(C(F)(F)F)c(-c3ccccc3)c2n1,96.9
O=C(NCCCn1ccnc1)c1cnn2c1NC(c1ccccc1)CC2C(F)(F)F (configuration not stated),105.2
CCn1c(Cc2ccccc2)nnc1SCc1ccc(C#N)cc1,96.2
O=C(Oc1ccccc1-c1nnco1)c1ccc(Cl)cc1,91.2
COCCNC(=O)c1ccccc1NS(=O)(=O)c1ccc(NC(C)=O)cc1,98.9
CC(C)Oc1cccc(C(=O)n2cnnc2N)c1,97.3
O=C1Nc2ccc(Cl)cc2[C@@](C#CC2CC2)(C(F)(F)F)O1,97.3&92.5
N#CCCn1cc(C(=O)Nc2ccc(C(=O)O)cc2)c(-c2cccc(Br)c2)n1,94.9
COC(=O)N1CCN(c2ccc(C)cc2)C(C)C1 (configuration not stated),93.9
